# HPGD inh – qHTS Assay for Inhibitors of HPGD (15-Hydroxyprostaglandin Dehydrogenase); 15-hydroxyprostaglandin dehydrogenase [NAD(+)] (Homo sapiens), P15428; purified HPGD, NADH fluorescence kinetic, PGE2 substrate; AID 894, 2007; 150,000 compounds, 4.3% hits; Potency, µM, for inactives: at the highest dose activity change, negative = inhibition, hits mostly inhibitors; active = well fitted inhibition curve with a large enough effect (not every such curve was filed as active); inconclusive = small, poorly fitted or top-dose-only effect, or another doubt; inactive = no such curve, though single readings can be large or run the other way;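 also: top concentration of the series not given in the record; plate controls included wells without enzyme; inactives centre near -10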
# Target sequence (P15428 whole entry, looked up): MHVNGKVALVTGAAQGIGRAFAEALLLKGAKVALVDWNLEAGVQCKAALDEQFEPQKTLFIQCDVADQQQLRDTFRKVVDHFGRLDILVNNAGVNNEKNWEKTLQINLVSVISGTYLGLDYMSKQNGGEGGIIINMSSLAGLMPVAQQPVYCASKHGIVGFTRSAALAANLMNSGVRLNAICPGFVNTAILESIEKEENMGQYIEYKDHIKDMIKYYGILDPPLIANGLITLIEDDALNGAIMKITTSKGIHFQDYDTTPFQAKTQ
#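 NADH formation kinetics: reaction with 30 uM PGE2 and 1 mM NAD+ (final), 20 nM enzyme, Tris-HCl pH 8 with Tween 20, after 15 min compound preincubation at room temperature. Fluorescence change, last versus first of five reads.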
# * = called active by the depositor; u = inconclusive; & = joins results of further samples. % is scaled to controls: 0 for no effect and ±100 for the full control effect; potency is read from the fitted curve at half-maximal effect. This is a subset (hit frequency here may not be typical).
HPGD inh	mol
-10.6%	O=C(Cc1cccs1)NNC(=S)NCc1ccc(Cl)cc1
-4.4%	COc1ccccc1NC(=O)C(Cc1ccc(Cl)cc1)c1nn[nH]n1 (configuration not stated)
-9.0%	Cc1ccc(S(=O)(=O)N2CCN(c3nc(C)nc4sc5c(c34)CCC(C)C5)CC2)cc1 (configuration not stated)
-4.3%	Cc1sc(Nc2ccc([N+](=O)[O-])cc2)nc1-c1c(C)n(C)n(-c2ccccc2)c1=O
-3.2%	COc1ccc(S(=O)(=O)N2CCCC(C(=O)N3CCN(C)CC3)C2)cc1C (configuration not stated)
-8.2%	CC1=C(C(=O)Nc2ccccc2)C(c2ccncc2)C(C#N)=C(SCC(=O)Nc2ccccc2)N1 (configuration not stated)
3.55µM*	O=C(Cc1ccc(Cl)cc1Cl)Nc1cccc(S(=O)(=O)Nc2ccccc2F)c1
0.3%	COc1ccc(OC)c(C(C)NC=O)c1 (configuration not stated)
-1.6%	Cc1cccc(NC(NC(=O)c2ccccc2[N+](=O)[O-])C(Cl)(Cl)Cl)c1 (configuration not stated)
-11.0%	Cc1cnn(C(=O)c2ccccc2Br)c1

# Next entries follow.
HPGD inh	mol
-11.8%	CC1CC[C@]2(CO)CC[C@]3(C)C(=CCC4[C@@]5(C)CCC(O)C(C)(C)C5CC[C@@]43C)C2C1C (some centres not stated)
-6.2%	CC(=O)Nc1cccc(/C(C)=N/NC(=O)c2c(-c3ccccc3Cl)noc2C)c1
-7.1%	Cc1c(C(=O)O)oc2c1/C(=N\O)CCC2
-23.1%	O=C(NC(=S)Nc1ccc(N2CCOCC2)cc1)c1cccc(Cl)c1
-1.2%	Cc1nnc(SCC(=O)Nc2ccc(Oc3ccccc3)cc2)n1N
-0.4%	CN1CCN(CC(=O)n2c3c(c4ccccc42)CCCC3)CC1
-11.1%	O=C(Cn1c2c(sc1=O)C1c3ccccc3OCC1CS2)Nc1ccc(Cl)cc1 (configuration not stated)
-15.5%	O=C(Nc1ccccc1C(F)(F)F)c1cc(-c2ccccc2O)on1
u	Cc1ccccc1C(=O)OCCCN=C1NS(=O)(=O)c2ccccc21
-6.6%	O=C(NCc1cccnc1)c1cc(S(=O)(=O)N2CCCCC2)ccc1Cl

# (listing goes on)
HPGD inh	mol
0.3%	O=C(NCCc1ccncc1)Nc1ccccc1Cl
-18.3%	COc1ccccc1CNc1ncnc2nc[nH]c12
-15.8%	O=C1Nc2ccc(NS(=O)(=O)c3cccs3)c3cccc1c23
-1.9%	CCOc1ccc(S(=O)(=O)NCCC(=O)NCc2ccco2)cc1
-15.5%	O=C1CC(N(CCc2ccccc2)C(=S)Nc2ccccc2)C(=O)N1c1ccc(Br)cc1 (configuration not stated)
-10.8%	CC1CCN(c2nc3ccccc3nc2C(C#N)C(=O)NC2CCCCC2)CC1 (configuration not stated)
-1.1%	CCCn1c(N)c(N2CCCCC2)c(=O)n(CC(=O)Nc2ccc(OC(F)(F)F)cc2)c1=O
-19.4%	CCc1cc(C(=O)Cc2ccc(F)cc2)c(O)cc1O
-27.5%	COC(=O)COc1cccc2c(=O)n(CC(=O)NCCc3ccc(OC)c(OC)c3)ccc12
-12.0%	COc1ccc(-c2nnc(SC)n2C)cc1

# The list continues.
HPGD inh	mol
-11.7%	C[C@]12C=CC(=O)C=C1CCC1C2C(=O)C[C@]2(C)C1CC[C@]2(O)C(=O)CO (some centres not stated)
0.1%	CC(=O)Nc1nnc(SCc2ccc(F)cc2)s1
-16.4%	COc1cc(C2NC(=O)NC(O)(C(F)(F)F)C2C(C)=O)cc(OC)c1OC (configuration not stated)
-7.1%	CCC(=O)NC1=C(C#N)C2(CCCC2)Cc2ccccc21
-14.1%	O=C1/C(=C/N(C(=O)c2ccco2)c2ccc(Cl)cc2)Sc2ccccc21
-6.7%	Cc1cc(N/C(=N\S(=O)(=O)c2ccc(F)cc2F)c2ccccc2)no1
-29.7%	COc1nccnc1NS(=O)(=O)c1ccc(NC(=S)NC(=O)/C=C/c2ccccc2)cc1
u	O=c1sc(/C=N/Nc2ccccc2)c(Cl)n1Cc1ccccc1
-11.1%	O=[N+]([O-])c1ccc(OCC(O)CN(CCO)CCO)cc1 (configuration not stated)
-16.1%	COc1cc(C(=O)Nc2ccc(S(=O)(=O)N(C)c3ccccc3)cc2)cc(OC)c1OC

# With a hit mark in HPGD inh, of those listed so far:
HPGD inh	mol
3.55µM*	O=C(Cc1ccc(Cl)cc1Cl)Nc1cccc(S(=O)(=O)Nc2ccccc2F)c1

# (listing goes on)
HPGD inh	mol
-20.3%	Cc1nc2ncnn2c(N2CCC(C(=O)NC3CCCC3)CC2)c1Cc1ccccc1
-13.4%	CCOC(=O)CSc1nnc(Cn2nnc(-c3ccccc3)n2)n1CC
-8.6%	Cn1nc(C(=O)N2CCOCC2)c2ccccc2c1=O
-0.3%	CCc1ccc(NC(=O)C(C)Oc2nnc(-c3cccs3)c(-c3cccs3)n2)cc1 (configuration not stated)
-8.2%	O=c1oc(-c2ccccc2[N+](=O)[O-])nc2ccccc12
-26.1%	Cc1ccc(-n2ncc3c2ncn2nc(-c4ccco4)nc32)c(C)c1
-7.1%	COc1ccc(C(C)(C)C)cc1NC(=O)c1ccoc1C
-2.2%	COCCN(C(=O)C1CCC1)c1nnc(-c2cccnc2)s1
-5.4%	COc1ccc(OC)c(Nc2nc3nonc3nc2N2CCCCC2)c1
-1.4%	O=C(CN1CCN(c2ccccc2)CC1)N/N=C/c1cccc(F)c1

# Other results follow:
HPGD inh	mol
-11.1%	O=C(Nc1cccc(NC(=O)c2cccnc2Cl)c1)c1ccco1
-4.6%	C[C@@H](SCc1ccccc1)C(=O)O
-2.7%	O=C(NCC1CCCO1)C(c1ccncc1)N(Cc1ccc(F)cc1)C(=O)CN1C(=O)c2ccccc2S1(=O)=O (configuration not stated)
u	Cc1ccc(/C=C/C(=O)N2CC(C)CC(C)C2)o1 (configuration not stated)
-20.9%	COC(=O)c1cc(=O)n(Cc2ccc3c(c2)OCO3)c(=Nc2ccccc2)s1
-13.1%	COCC(C)n1c(C)cc(C(=O)COC(=O)c2ccc(N3CCCC3=O)cc2)c1C (configuration not stated)
-23.3%	COc1cc(/C=C/c2nc(N)nc(-c3ccccc3O)n2)cc(OC)c1OC
-5.1%	NC(=O)c1ccc(NS(=O)(=O)c2ccccc2F)cc1
-7.6%	CCOC(=O)c1c(C)n(C)c2ccc(O)c(CN3CCN(C)CC3)c12
u	O=S(=O)(c1ccccc1)N1CCC2(CC1)CN(c1ncccn1)C2

# Following part
HPGD inh	mol
25.1µM*	CC1CCCCN1C(=O)CSc1nnc(-c2cccnc2)n1C1CCCCC1 (configuration not stated)
-23.7%	O=C(COC(=O)/C=C/c1cccs1)Nc1ccc2ccccc2c1
-13.3%	Cc1cccc2cc(CN(Cc3ccco3)C(=O)N3CCCC3)c(=O)[nH]c12
2.2%	O=C(NC(=S)Nc1ccccn1)c1cncc(Br)c1
-0.5%	Nc1cc2c(cc1C(=O)c1ccccc1)OCCO2
-0.4%	COCCCN(C(=S)Nc1c(C)cc(C)cc1C)C(C)c1ccncc1 (configuration not stated)
-6.3%	COc1ccccc1N1CCN(C(=O)CSc2nnc3c4ccccc4n(CC(=O)O)c3n2)CC1
-3.7%	N#CCc1nnc2n1-c1ccccc1CCC2
-11.8%	O=C(Cn1nnc2ccccc2c1=O)NCCc1ccccc1
-4.6%	N#CC1=C(N)OC2=C(C(=O)CCC2)C12C(=O)N1CCCc3cccc2c31 (configuration not stated)

# Further records:
HPGD inh	mol
2.3%	Clc1ccc(-n2nnnc2CN2CCCCC2)cc1Cl
u	COC(=O)CCc1nc2ccccc2[nH]c1=O
-14.1%	O=C(CSc1nc(O)cc(=O)[nH]1)Nc1ccc2c(c1)CCC2
-4.3%	CC#CCN1c2ccccc2[C@]23C[C@@H](C(=O)OC)N(C(=O)c4cc(C)oc4C)C2=NC(C(=O)OC)=C(C(=O)OC)[C@H]13
-28.5%	Cc1ccc(-n2c(Cl)c(Cl)[nH]c(=O)c2=O)cc1
-29.1%	Cc1cccc(/C=C/c2nc3ccccc3c(=O)n2Cc2ccccc2)c1
-7.6%	COc1ccc(N(C)C(=S)Oc2ccc(C(=O)Nc3ccccc3)cc2)cc1
-0.1%	Cc1cc(C(=O)NCCN2CCCCC2C)n(-c2ccccc2)n1 (configuration not stated)
u	COc1cccc(-c2cc(C(F)(F)F)nc(-n3cccn3)n2)c1
-5.9%	Clc1ccccc1Cn1nnc2c(N3CCCC3)ncnc21

# The list goes on:
HPGD inh	mol
-29.7%	NC1=C([N+](=O)[O-])C(c2ccc(F)cc2)C2=C(CCCC2=O)O1 (configuration not stated)
u	COc1ccc(/C=N/NC(=O)c2nc(-c3ccccc3)n(-c3ccccc3)n2)cc1OC
u	CCn1c(SCC(=O)Nc2nonc2C)nnc1-c1ccco1
-8.2%	CN1CCN(c2ccc(NC(=O)CSc3ccccc3)cc2F)CC1
-13.2%	Cc1sc2ncnc(N/N=C/c3cccc(O)c3)c2c1C
-0.6%	O=Cc1ccc(-c2ccccc2OC(F)(F)F)o1
u	CCOC(=O)c1ccc(Oc2c(C)oc3c(CN4CCN(C)CC4)c(O)ccc3c2=O)cc1
u	c1csc(-c2nnc3ccccn23)c1
-16.2%	Cc1cccc(-n2nnc(C(=O)NC3CCCc4ccccc43)c2N)c1 (configuration not stated)
-28.8%	CC(C)c1ccc(OCC(=O)NCc2ccco2)cc1

# New compounds follow
HPGD inh	mol
-10.7%	CCOC(=O)/C=C/C(=O)Nc1nccs1
-8.5%	C[C@@H]1CC2(OC3C[C@@]4(C)C5=CC[C@H]6C(C)(C)C(O[C@@H]7OC[C@@H](O)[C@H](O)[C@H]7O)CC[C@@]67C[C@@]57CC[C@]4(C)C31)OC(O)C1(C)OC21 (some centres not stated)
-13.3%	CN(C)S(=O)(=O)c1cc(NC(=O)COC(=O)CCSc2ccc(Cl)cc2)ccc1Cl
u	NS(=O)(=O)c1ccc(N2N=C(c3ccccc3)CC2c2ccc(F)cc2)cc1 (configuration not stated)
-5.8%	O=Cc1ccccc1OS(=O)(=O)c1ccccc1
-10.5%	COc1ccc(Cn2cc(F)c(=O)n(CCC(C)C)c2=O)cc1[N+](=O)[O-]
-11.4%	CCN1CCN(c2nc(C)c3c(n2)CCCC3=O)CC1
-1.0%	Cc1sc2c(c1C)c(=O)n(-c1cccc(C(F)(F)F)c1)c(=O)n2CC(=O)NCc1ccco1
u	O=C(Cn1cnc2c(nnn2Cc2ccc(F)cc2)c1=O)OCc1ccccc1
-0.6%	CCCOc1ccc(Cl)cc1CN1CCOCC1

# Next part.
HPGD inh	mol
-9.8%	CN(C)CC(C)(C)CNC(=O)c1ccc(-n2c(=O)c(=O)[nH]c3ccccc32)cc1
-7.9%	Cc1cc2ncn(S(=O)(=O)N3CCOCC3)c2cc1C
-14.6%	Cc1c(N=Cc2ccc(-c3ccc(Cl)cc3)o2)c(=O)n(-c2ccccc2)n1C
-13.0%	CCCN1C(=O)C(NC(C)=O)c2cc(OC)ccc21 (configuration not stated)
u	COc1ccc(/C=N/NC(=O)c2ccc(COc3ccccc3Cl)o2)c(OC)c1C
1.8%	CCCCCC(=O)Nc1ccccc1N1CCOCC1
-9.6%	CC(=O)c1nn(-c2cccc(Br)c2)cc1C(=O)c1ccco1
-13.4%&-11.2%	CCN(Cc1ccncc1)C(=O)C(CO)c1ccccc1 (configuration not stated)
-24.7%	COc1ccccc1C(=O)N/C(=C\c1ccc2c(c1)OCO2)C(=O)NCCc1nc2ccccc2[nH]1
-4.4%	O=S(=O)(N/N=C1\CC(c2ccccc2)Oc2ccccc21)c1ccccc1 (configuration not stated)

# Next section
HPGD inh	mol
u	CCOC(=O)C1C2C=CC3(CN(C4CCCC4)C(=O)C13)O2 (configuration not stated)
-1.0%	CC1(C)CC[C@]2(C(=O)O)CC[C@]3(C)C(=CCC4[C@@]5(C)CC[C@H](O)C(C)(C)C5CC[C@]43C)C2C1 (some centres not stated)
-27.0%	Cc1cc(C)c(C2=NOC3C4CCC(C4)C23)c(C)c1 (configuration not stated)
1.6%	COC(=O)C(O)(CC(=O)Nc1ccc(OC)cc1)C(F)(F)F (configuration not stated)
-8.4%	CCOC(=O)Cc1nnc(NC(=O)Nc2ccccc2)s1
1.6%	CC(C)OC(=O)[C@@H]1CC[C@H](C)[C@@H](CCC[C@@H]2C[C@@H](O)C[C@H](CC#N)O2)O1
-11.0%	O=c1[nH]n(Cc2ccccc2)c(=O)c2ccccc12
-0.1%	O=C(NCc1ccc2c(c1)OCO2)c1cc(-n2cnnc2)ccc1Cl
-24.3%	Cc1cc2ccccc2n1CCNC(=O)C1CCCCC1
-10.1%	Cc1nn2c(-c3ccc(Cl)cc3)nnc2s1

# 6 of the entries above in order of the HPGD inh value, ascending:
HPGD inh	mol
-27.0%	Cc1cc(C)c(C2=NOC3C4CCC(C4)C23)c(C)c1 (configuration not stated)
-24.3%	Cc1cc2ccccc2n1CCNC(=O)C1CCCCC1
-11.0%	O=c1[nH]n(Cc2ccccc2)c(=O)c2ccccc12
-8.4%	CCOC(=O)Cc1nnc(NC(=O)Nc2ccccc2)s1
-0.1%	O=C(NCc1ccc2c(c1)OCO2)c1cc(-n2cnnc2)ccc1Cl
1.6%	CC(C)OC(=O)[C@@H]1CC[C@H](C)[C@@H](CCC[C@@H]2C[C@@H](O)C[C@H](CC#N)O2)O1

# Continued.
HPGD inh	mol
-10.4%	Nc1nc(SCC(=O)Nc2ccc(Br)cc2F)n[nH]1
u	Cc1ccc(/C=C/c2nnc(-c3cccs3)o2)cc1
-13.6%	COc1ccc(/C=N\NC(=O)c2cc(OCC(F)(F)F)ccc2OCC(F)(F)F)cc1
-25.1%	Cc1ccc(NC(=O)c2cc(-c3ccccc3)nn2-c2ccccc2)cc1
25.1µM*	COc1ccc2cc(C(=O)Nc3ccc(O)cc3)sc(=O)c2c1OC
-9.4%	COc1ccccc1CNC(=O)/C=C/c1ccc(S(=O)(=O)NCc2ccco2)cc1

# Screening data (PubChem)
